HNF4A DNA FP = change in binding of human HNF4A to DNA, primary screen, biochemical, fluorescence polarization, FITC-DNA | Hepatocyte nuclear factor 4-alpha (Homo sapiens), P41235 | 1 h | activity change, % at 10 µM | 0.3% of 360,000 active; in the data active means activity change above about 30%, passing the limit was not always enough;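 further: controls were the assay level and a saturating level of protein; the project sought stronger binding though the title names inhibitors; some compounds called inactive have numbers as strong as hits; positive values seem to mean higher polarization but the record does not say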
Target sequence (P41235 whole entry, looked up): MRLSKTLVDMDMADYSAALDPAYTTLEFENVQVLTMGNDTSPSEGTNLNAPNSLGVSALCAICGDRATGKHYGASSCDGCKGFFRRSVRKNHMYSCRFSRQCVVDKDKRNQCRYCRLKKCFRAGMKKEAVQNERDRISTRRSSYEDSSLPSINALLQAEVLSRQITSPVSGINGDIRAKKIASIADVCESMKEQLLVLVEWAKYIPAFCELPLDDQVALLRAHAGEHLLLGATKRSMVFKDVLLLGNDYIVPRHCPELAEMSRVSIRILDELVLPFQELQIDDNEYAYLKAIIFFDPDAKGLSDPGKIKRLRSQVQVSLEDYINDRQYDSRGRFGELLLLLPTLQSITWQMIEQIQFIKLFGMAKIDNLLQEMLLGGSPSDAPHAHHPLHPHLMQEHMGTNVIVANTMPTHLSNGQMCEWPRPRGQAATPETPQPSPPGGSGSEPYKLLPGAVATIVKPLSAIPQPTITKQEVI
UCH37 DUB inh = inhibitors of human UCH37 deubiquitinase, primary screen, biochemical, Ub-AMC cleavage, fluorescence; Ubiquitin carboxyl-terminal hydrolase isozyme L5 (Homo sapiens), Q9Y5K5; purified proteasome/UCH37; inhibition, % (concentration not given with the values); 0.33% of 330,000 active; AID 588478, 2011;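 active means mean of two replicates above 20%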;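 further: 0% = compound-free wells with enzyme and 100% = wells lacking proteasome; stock transfer was 100 nL into about 20 µL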
Target sequence (Q9Y5K5 whole entry, looked up): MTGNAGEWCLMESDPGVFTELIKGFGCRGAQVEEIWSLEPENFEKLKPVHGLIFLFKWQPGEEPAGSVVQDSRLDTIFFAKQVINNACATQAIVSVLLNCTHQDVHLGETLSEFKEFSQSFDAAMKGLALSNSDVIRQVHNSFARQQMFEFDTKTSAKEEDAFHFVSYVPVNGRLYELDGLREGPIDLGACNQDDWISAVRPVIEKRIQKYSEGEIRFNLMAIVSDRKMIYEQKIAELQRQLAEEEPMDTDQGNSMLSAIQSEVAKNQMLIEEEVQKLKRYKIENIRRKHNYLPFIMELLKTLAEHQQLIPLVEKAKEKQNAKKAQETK
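Test system – human UCH37 enzyme supplied as purified proteasome complex · Incubation – 30 min preincubation with enzyme, 25 min cleavage at room temperature · Detection – AMC fluorescence from Ub-AMC cleavage, excitation 355 nm, emission 460 nm · Benchmarks – no-proteasome wells (full inhibition) and compound-free wells (no inhibition)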
ALR H2O2 inh = inhibitors of human ALR sulfhydryl oxidase, primary screen, biochemical, H2O2 detection, HRP-luminol luminescence, single point | AID 485317, 2010 | FAD-linked sulfhydryl oxidase ALR (Homo sapiens), P55789 | purified ALR, DTT oxidation | 3.8% of 290,000 active | inhibition, % (test concentration not listed);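 active means mean and each replicate at 75% or more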;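 further: stock transfer was 7.5 nL into about 7.5 µL; 0% = neutral wells and 100% = wells with inactivated enzyme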
Ecoli growth = E. coli growth inhibition, primary screen, OD600. Escherichia coli growth, 23 h; hits give low values. OD600 absorbance (test concentration not listed). 0.21% of 330,000 active. AID 1053175, 2014;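 active means OD600 absorbance below the run mean of sample wells minus 3.6 SD, in any replicate, cut at about 0.56 in these data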;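 further: stock transfer was 300 nL into about 60 µL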
FGF22 binding = binders of human FGF22 protein, primary screen, FGF22 synaptogenesis inhibitor project, biophysical, thermal shift, single point. Fibroblast growth factor 22 (Homo sapiens), Q9HCT0. recombinant FGF22 thermal shift, SYPRO orange fluorescence; percent of sucrose octasulfate shift, DMSO zero. calls only at 9.99 µM. 1.5% of 340,000 active. AID 651658, 2012;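 active means melting point raised past a set limit in the mean and every replicate; three in four hits are not shown here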
Target sequence (Q9HCT0 whole entry, looked up): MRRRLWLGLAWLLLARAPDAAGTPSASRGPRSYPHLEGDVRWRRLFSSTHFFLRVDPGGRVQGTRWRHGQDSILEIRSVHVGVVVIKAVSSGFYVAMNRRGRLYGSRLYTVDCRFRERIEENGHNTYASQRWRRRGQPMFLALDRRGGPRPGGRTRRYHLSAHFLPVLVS
Ecoli rRNA inh = reduced GFP signal of wild-type E. coli, primary screen, bacterial rRNA inhibitor project, GFP/RFP fluorescence, OD600, single point. E. coli WT GFP vs humanized-ribosome RFP mutants, 24 h; hits give low values; DMSO median 0, no signal -100. GFP signal change (wild-type ribosome), % (test concentration not listed). 1.6% of 350,000 active. AID 720706, 2013;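 active means significant combined selectivity score with lowered wild-type GFP, culture density cut under 30%, mutant RFP and density less affected; inactive means any of these conditions unmet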; further: one replicate is shown; some compounds called inactive have numbers as strong as hits
B2AR ag = beta2AR agonists driving receptor internalization, primary screen, cell-based, FAP fluorogen, flow cytometry; Beta-2 adrenergic receptor (Homo sapiens), P07550; Am2.2-beta2AR cells; reference of the scale not given here; response, % (concentration not given with the values); 0.43% of 340,000 active;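 active means response above a set limit, near 3 SD of response in nonfluorescent compounds, cut at about 42% in these data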;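 further: stock transfer was 100 nL into about 11 µL; a reference agonist was the positive control; negative values mostly stem from fluorescent compounds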
Ecoli rRNA inh OD600 = also measured in Ecoli rRNA inh; calls as there; OD600 change, %; measured here: OD600 growth;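 optical density of the mix in the first replicate; 0 = DMSO median and -100 = no signal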
Ecoli rRNA inh RFP = second read-out of Ecoli rRNA inh, no call of its own (marks repeat the call); RFP signal change, %; measured here: RFP humanized mutant strains;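 first replicate; 0 = DMSO median and -100 = no signal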
The depositor's hits bear a star; i = inactive; · = not tested or not shown; & = joins results of further samples. Some of the compounds tested. The share of hits here may be higher or lower than overall.

SMILES | HNF4A DNA FP | UCH37 DUB inh | ALR H2O2 inh | Ecoli growth | FGF22 binding | Ecoli rRNA inh | Ecoli rRNA inh OD600 | Ecoli rRNA inh RFP | B2AR ag
O=[N+]([O-])c1ccc(CSc2nnc(SCc3ccc(Cl)cc3)s2)cc1 | 3.5 | 0.7 | -7.8 | 0.725 | i | 9.8 | -3.5 | -0.5 | 2.4
Cc1ccc(Cl)c(NC(=O)CN(C)CC(=O)Nc2ccc(F)c(F)c2F)c1Cl | 4.5 | 1.7 | · | 0.712 | · | 2.7 | 3.6 | 3.7 | -0.7
CC(=O)Nc1ccc2c(c1)[nH]c(=O)c1ccccc12 | 0.5 | · | · | · | i | -5.3 | -5.1 | -1.2 | -1.9
CCOC(=O)C(CC(=O)Nc1nc(C(C)=O)c(C)s1)C(C)c1ccccc1 (stereo unspecified) | 1.9 | 2.2 | -43.1 | 0.701 | i | -2.7 | -6.2 | -2.6 | -7.4
O=C(NCCNC(=O)c1ccccn1)c1cccc(F)c1 | 1.1 | -0.6 | -3.3 | 0.701 | i | 1.6 | 5.8 | -4.4 | 1.0
O=S(=O)(NCCc1ccccc1)c1ccc(F)cc1Br | -0.3 | 2.1 | · | 0.685 | i | -39.7 | -59.4 | -8.5 | -3.3
O=C(O)CSc1nc2c(c(C(F)(F)F)n1)CCCC2 | -2.2&2.8 | 0.3&1.9 | -4.1&2.0 | 0.708&0.693 | i | 4.1&-3.4 | 14.6&-4.8 | 4.3&0.7 | 8.8&-1.1
COc1cccc(CN2CC(C(=O)NCCc3cn4cccnc4n3)CCC2=O)c1 (stereo unspecified) | 2.1 | · | · | · | i | 17.8 | 12.6 | 3.7 | ·
C=CCn1c(-c2cc(-c3ccccc3)sc2N)n[nH]c1=S | 5.5 | 0.4 | 92.9* | 0.676 | i | -10.7 | 2.0 | 16.4 | 5.2
O=C(COc1ccc(S(=O)(=O)N2CCOCC2)cc1)Nc1ccccc1C(F)(F)F | -2.1 | 2.9 | -13.7 | 0.738 | · | · | · | · | -6.7
CCn1c(CC(=O)Nc2ccc(C)cc2)nnc1SCC(=O)N1CCN(c2ccccc2)CC1 | -1.1 | -2.3 | 88.7* | 0.726 | · | · | · | · | -4.9
Cc1cccc(C(=O)N2CCCC(Nc3ccc(C)c(C)c3)C2)n1 (stereo unspecified) | -1.0 | 4.0 | 98.7* | 0.699 | i | 0.0 | -0.4 | -3.6 | -1.0
Cc1ccc(C(=O)N2CCC3(CC2)NCCc2[nH]cnc23)cc1C | 2.8 | -0.3 | -1.1 | 0.69 | i | 6.4 | 8.2 | -0.7 | -1.6
O=C(C[C@H]1CC[C@H]2[C@@H](COC[C@H](O)CN2Cc2ccccc2)O1)NCCCN1CCOCC1 | 1.4 | · | · | · | i | 7.4&11.4 | 12.5&3.1 | 0.6&2.8 | ·
CC(=O)c1cc(C#N)c(NCCCN(C)C)nc1C | -2.4 | 1.6 | 4.8 | 0.683 | i | 28.1 | 19.6 | 4.6 | -6.1
COc1ccc(C)cc1NC(=O)c1ccccc1NS(=O)(=O)c1cccc2cccnc12 | 2.0 | 1.8 | -3.6 | 0.67 | · | · | · | · | -27.1
O=C(c1cccc(Br)c1)N1CCN(C(=O)N2CCCCC2)CC1 | -2.6 | 0.7 | 3.9 | 0.667 | i | -6.5 | -4.8 | -5.4 | 1.6
CCC(=O)Nc1ccc(OCc2nc3ccccc3s2)cc1 | 6.5 | -0.1 | -5.3 | 0.708 | · | -6.6 | -3.0 | -4.3 | 5.0
CCOc1cc2c(cc1OCC)C(c1ccc(O)c(OC)c1)NCC2 (stereo unspecified) | 0.6 | 1.4 | · | 0.75 | i | 5.3 | 14.2 | 1.6 | 4.2
O=C(CSc1nnnn1-c1ccc(Cl)c(C(=O)O)c1)NC(c1ccccc1)c1ccccc1 | 1.8 | 1.2 | -1.3 | 0.735 | i | -1.2 | 4.6 | 1.0 | 1.7
CC(=O)c1c(C)[nH]c(C(=O)OCc2csc(CC(=O)Nc3ccccc3C)n2)c1C | 2.0 | 5.4 | -7.6 | 0.669 | i | 12.4 | 9.9 | 19.0 | -13.6
CC1CCN(CCCNC(=O)c2cc3c(s2)-c2ccccc2OC3)CC1 | 1.7 | i | -7.9 | 0.681 | i | -1.4 | -3.1 | 0.4 | 1.9
CCC(C)(C)NC(=O)C(c1ccco1)N(C(=O)Cn1nnc2ccccc21)c1ccc2c(c1)OCO2 (stereo unspecified) | 1.9 | 1.9 | -38.8 | 0.704 | · | · | · | · | 0.1
CCN1CCN(c2ccc([N+](=O)[O-])c(Sc3nc4ccccc4[nH]3)c2)CC1 | -2.2 | 9.9 | -4.4 | 0.704 | i | 2.0 | 9.1 | -2.3 | -5.6
COc1cccc(NC(=O)C2CCN(S(=O)(=O)c3ccc4c(c3)OCCO4)CC2)c1 | 0.7 | 5.2 | -11.9 | 0.741 | · | · | · | · | 1.0
Clc1cccc(CNc2ccn3nc(-c4ccco4)cc3n2)c1 | 7.5 | · | · | · | i | -20.4 | -29.0 | 0.7 | ·
O=C(CSc1ccc2nnc(CCNC(=O)c3ccccc3)n2n1)NCc1ccc(F)cc1 | 2.8 | 1.6 | -10.3 | 0.709 | i | 10.6 | 7.1 | 2.2 | -3.9
COc1cccc(-c2nnc3sc(C4CCCCC4)nn23)c1 | -2.5 | 3.8 | -3.0 | 0.655 | · | · | · | · | -17.1
O=C(C1CCN(C2CC(=O)N(c3ccc(F)cc3)C2=O)CC1)N1CCOCC1 (stereo unspecified) | 2.3 | 4.8 | 14.8 | 0.749 | · | · | · | · | -5.4
CCCN(Cc1cc2cc(C)ccc2[nH]c1=O)C(=O)c1cccc([N+](=O)[O-])c1 | -1.0 | 2.6 | -25.8 | 0.635 | i | 3.6 | 4.7 | -5.1 | -6.4

Random excerpt: 3 entries already listed, in no set order.
SMILES | HNF4A DNA FP | UCH37 DUB inh | ALR H2O2 inh | Ecoli growth | FGF22 binding | Ecoli rRNA inh | Ecoli rRNA inh OD600 | Ecoli rRNA inh RFP | B2AR ag
O=C(CSc1ccc2nnc(CCNC(=O)c3ccccc3)n2n1)NCc1ccc(F)cc1 | 2.8 | 1.6 | -10.3 | 0.709 | i | 10.6 | 7.1 | 2.2 | -3.9
CC(=O)c1c(C)[nH]c(C(=O)OCc2csc(CC(=O)Nc3ccccc3C)n2)c1C | 2.0 | 5.4 | -7.6 | 0.669 | i | 12.4 | 9.9 | 19.0 | -13.6
O=C(C1CCN(C2CC(=O)N(c3ccc(F)cc3)C2=O)CC1)N1CCOCC1 (stereo unspecified) | 2.3 | 4.8 | 14.8 | 0.749 | · | · | · | · | -5.4

The list goes on.
SMILES | HNF4A DNA FP | UCH37 DUB inh | ALR H2O2 inh | Ecoli growth | FGF22 binding | Ecoli rRNA inh | Ecoli rRNA inh OD600 | Ecoli rRNA inh RFP | B2AR ag
O=C(CSc1nnc(NC(=O)c2ccccc2[N+](=O)[O-])s1)NCC1CCCO1 (stereo unspecified) | 4.5 | 4.9 | 4.2 | 0.732 | i | -1.0 | 6.4 | -3.1 | -1.5
CCC1CCCCN1C(=S)Nc1ccc(SC(F)F)cc1 (stereo unspecified) | -0.9 | 4.5 | 5.0 | 0.641 | i | -55.6 | -80.7 | -22.2 | -8.0
Cc1ccc(C(=O)CSc2nc(N)cc(=O)[nH]2)cc1 | 1.9 | 1.9 | 99.0* | 0.691 | · | · | · | · | 15.6
Cc1ccc(S(=O)(=O)N2CCN(C(=O)COC(=O)c3ccc(Br)o3)CC2)c(C)c1 | -1.5 | 4.5 | 3.0 | 0.695 | i | -1.6 | -8.9 | 2.7 | 1.3
O=C(O)Cc1ccc2oc(-c3ccccn3)nc2c1 | 1.4 | 1.0 | · | 0.665 | i | 5.8 | 9.9 | 3.5 | 0.8
CC(C)CC(=O)N1CCN(Cc2cccc(Cl)c2)CC1 | 1.7 | -2.0 | -6.1 | 0.641 | i | 8.1 | 5.8 | 2.0 | -2.0
CC1(C(=O)N/N=C/c2ccccc2)CC1(Br)Br (stereo unspecified) | 0.9 | · | 4.0 | · | i | -20.1 | -14.0 | -1.4 | 1.9
O=C(O)c1sc2cccc(Cl)c2c1Cl | -5.0 | -4.8 | · | 0.678 | · | -30.3 | -52.3 | -4.2 | -1.1
O=C(CC1SC(N2CCOCC2)=NC1=O)Nc1ccc(Cl)cc1 (stereo unspecified) | 0.8 | 5.5 | · | 0.648 | i | 15.9 | 8.1 | 1.3 | 0.3
O=C(c1ccccc1)c1coc2c1C(=O)c1ccccc1C2=O | 1.6 | 15.1 | -4.6 | 0.696 | i | 13.4 | -1.3 | 5.6 | -3.2
Cc1c(OCC(F)(F)F)ccnc1CSc1nc2ccccc2[nH]1 | -1.2 | 2.2 | -9.2 | 0.717 | · | · | · | · | -29.7
COc1ccc2[nH]c(=O)c(CN(c3ccccc3OC)S(=O)(=O)c3ccccc3)cc2c1 | 2.4 | -13.3 | · | 0.692 | i | 8.4 | 8.5 | 2.8 | -1.3
Cc1cc(=O)[nH]c(SCc2cccc3ccccc23)n1 | -3.4 | 3.1 | 98.4* | 0.629 | i | -13.5 | -7.2 | 0.0 | 0.8
O=C(COc1ccc2c(-c3ccccc3)cc(=O)oc2c1)NCc1cccs1 | -1.4 | -4.9 | · | 0.7 | · | · | · | · | -3.3
CCCCS(=O)c1c(O)c2ccccc2[nH]c1=O (stereo unspecified) | -3.1 | 3.3 | -1.9 | 0.672 | i | -0.8 | -4.6 | 0.2 | -5.5
CCCCCn1c(N2CCN(Cc3ccccc3)CC2)nc2c1c(=O)[nH]c(=O)n2C | 2.0 | 5.6 | -23.0 | 0.721 | · | · | · | · | 9.1
O=[N+]([O-])c1ccccc1/C=N/n1c(C(F)(F)F)n[nH]c1=S | -2.7 | · | 94.9* | · | i | 1.8 | 1.9 | -1.3 | 1.9
CC(=O)N/C(=N\OCc1ccc(Br)cc1)c1nonc1NC(C)=O | 2.2 | · | 4.2 | · | · | · | · | · | -1.8
CCc1nc2oc3cc(OC)ccc3c(=O)c2c(=O)n1-c1ccccc1 | 1.7 | 4.1 | 20.9 | 0.663 | · | · | · | · | -17.2
CCn1c(SCC(=O)NCC2CCCO2)nnc1-c1ccccc1 (stereo unspecified) | 0.8 | -1.2 | -8.7 | 0.701 | · | · | · | · | 1.6
Cn1c(=O)c2nc(-c3ccc(Cl)cc3Cl)oc2c2ccccc21 | -0.9 | -261.1 | -6.3 | 0.733 | i | 3.0 | 8.1 | -2.3 | -2.6
COc1ccc(NC(=O)CSc2nnc(-c3cc(C)[nH]n3)n2N)cc1OC | 1.9 | 2.2 | -9.7 | 0.708 | i | 0.1 | 8.8 | -0.6 | 2.5
C=C(C)CNC(=S)Nc1ccc(S(=O)(=O)Nc2cnc3ccccc3n2)cc1 | -1.3 | -0.6 | -6.8 | 0.696 | i | -11.6 | -14.0 | -8.3 | 9.6
O=C(O)c1cccc(S(=O)(=O)Nc2ccc(OCc3ccccc3)cc2)c1 | -2.0 | 4.5 | 1.4 | 0.684 | i | -6.1 | -23.8 | -2.0 | 2.9
COC(=O)c1cc(C(=O)NCCCN2CCOCC2)cc([N+](=O)[O-])c1 | 0.5 | 3.9 | -6.9 | 0.632 | i | 16.2 | 18.1 | 2.6 | -1.3
COc1ccccc1NC(=O)CSc1nnc(CC(=O)Nc2ccccc2)n1C | 1.6 | 2.6 | -15.7 | 0.683 | · | · | · | · | -5.1
